KCNQ2 enhance: KCNQ2 (rat) channel potentiation; CHO-K1 KCNQ2, FluxOR thallium flux fluorescence; stronger effect = higher value; AID 2239; actives 0.54% (n = 310,000); B-score at 10 µM; O88943;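 active = fluorescence ratio B-score at least 3 SD of library B-scores, with initial fluorescence B-score within 3 SD, cut at about 5.3 in these data; same plate scores as AID 2156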;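 note: B-score of peak minus minimum over baseline fluorescence ratio after K+ and Tl+ stimulus; positive B-score means potentiation of KCNQ2 with more thallium influx and brighter signal; only the inactives scoring about 0 or higher are listed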
Target sequence (O88943 whole entry, looked up): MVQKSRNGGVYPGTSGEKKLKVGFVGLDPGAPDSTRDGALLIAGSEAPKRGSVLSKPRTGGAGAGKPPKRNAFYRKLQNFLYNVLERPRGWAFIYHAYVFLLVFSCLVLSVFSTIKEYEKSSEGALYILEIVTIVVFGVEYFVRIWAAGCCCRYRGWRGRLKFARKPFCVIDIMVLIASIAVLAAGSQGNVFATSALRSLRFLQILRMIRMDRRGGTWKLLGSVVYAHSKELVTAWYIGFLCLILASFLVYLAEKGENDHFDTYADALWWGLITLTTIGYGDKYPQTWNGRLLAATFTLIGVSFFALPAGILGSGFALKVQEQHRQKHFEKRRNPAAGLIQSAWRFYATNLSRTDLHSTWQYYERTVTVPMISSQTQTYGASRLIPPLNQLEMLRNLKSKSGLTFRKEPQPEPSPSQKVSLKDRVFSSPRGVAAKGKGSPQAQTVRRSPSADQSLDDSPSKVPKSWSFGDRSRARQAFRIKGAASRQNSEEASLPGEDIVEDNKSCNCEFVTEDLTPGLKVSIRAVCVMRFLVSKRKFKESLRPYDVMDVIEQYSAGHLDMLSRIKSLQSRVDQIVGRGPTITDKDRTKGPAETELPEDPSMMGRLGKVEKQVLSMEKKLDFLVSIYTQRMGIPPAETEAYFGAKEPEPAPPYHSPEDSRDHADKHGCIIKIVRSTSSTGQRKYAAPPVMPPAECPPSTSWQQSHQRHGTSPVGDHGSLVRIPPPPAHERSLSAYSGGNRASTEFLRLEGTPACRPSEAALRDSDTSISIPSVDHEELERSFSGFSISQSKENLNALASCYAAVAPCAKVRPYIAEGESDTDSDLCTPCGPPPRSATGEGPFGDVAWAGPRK
KCNQ2 enhance baseline: second read-out of KCNQ2 enhance, no call of its own (marks repeat the call); B-score; compound at 10 µM; measured here: initial fluorescence intensity artifact check;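 brightness before thallium and not channel activity; 0 = typical well and far values either way flag optical interference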
An asterisk follows results filed as active.

Screens in order: KCNQ2 enhance | KCNQ2 enhance baseline
> Cc1ccc(C2=Nc3ccc(Br)cc3C(c3ccncc3)=NN2)cc1
  1.16 | -1.4
> O=C(Nc1cccc(S(=O)(=O)N2CCCC2)c1)c1ccc2c(=O)n3c(nc2c1)CCCCC3
  1.5 | -0.04
> CCC(=O)NC1OC(CO)C(O)C(O)C1O (stereo not drawn)
  0.81 | -0.87
> CSc1ccccc1OCc1cc(C(=O)N2CCC(Oc3cccnc3)CC2)no1
  0.24 | -2.86
> Cn1c(=O)c2c(nc(N/N=C/c3cccs3)n2Cc2ccccc2)n(C)c1=O
  0.16 | 0.6
> CSCCC(NC(=O)c1ccc([N+](=O)[O-])cc1Cl)C(=O)OCC(=O)NC1CCCC(C)C1C (stereo not drawn)
  0.83 | 1.86
> CCOC(=O)COn1c(=O)c(=O)n(OC)c2ccccc21
  0.43 | -0.18
> COc1cc(C(C#N)N2CCC(c3ccccc3)=N2)ccc1O (stereo not drawn)
  1.83 | 5.67
> O=C(CCN1C(=O)c2ccccc2C1=O)N1CCOCC1
  0.01 | 0.53
> Cn1c(SCC(=O)NNC(=O)c2ccc(Cl)cc2)nnc1-c1cccnc1
  0.92 | -0.22

Filtered by structure: those above containing a carbonyl joined to an NH by a bond outside any ring.
Screens in order: KCNQ2 enhance | KCNQ2 enhance baseline
> O=C(Nc1cccc(S(=O)(=O)N2CCCC2)c1)c1ccc2c(=O)n3c(nc2c1)CCCCC3
  1.5 | -0.04
> CCC(=O)NC1OC(CO)C(O)C(O)C1O (stereo not drawn)
  0.81 | -0.87
> CSCCC(NC(=O)c1ccc([N+](=O)[O-])cc1Cl)C(=O)OCC(=O)NC1CCCC(C)C1C (stereo not drawn)
  0.83 | 1.86
> Cn1c(SCC(=O)NNC(=O)c2ccc(Cl)cc2)nnc1-c1cccnc1
  0.92 | -0.22

Next part.
Screens in order: KCNQ2 enhance | KCNQ2 enhance baseline
> CN1CC2([N+](=O)[O-])CC=C(OCCO)C([N+](=O)[O-])(C1)C2 (stereo not drawn)
  0.24 | 0.36
> COC(=O)c1cc(S(=O)(=O)N(C)Cc2ccco2)c[nH]1
  0.2 | 4.54
> CCOC(=O)c1sc(NC(C)=O)c(C(=O)OCC)c1C
  0.04 | -0.77
> COc1ccc(-c2noc(CCCC(=O)NC3CCCCC3)n2)cc1OC
  1.19 | -0.62
> CCOC(=O)c1cnn2c(C)cc(-c3ccccc3)nc12
  1.34 | -2.12
> Cc1cc(Cl)c(OCCOCCN2CCC(C)CC2)c(Br)c1
  1.51 | -0.2
> Cc1nc(Cl)c2c(n1)N(CC(N)=O)C(=O)CO2
  0.09 | -1.66
> COC(=O)Cn1ncc2c3ccccc3n(C)c2c1=O
  0.17 | -0.9
> Nc1nc(SCC(=O)Nc2ccc(Cl)cc2C(F)(F)F)n[nH]1
  0.7 | -1.08
> Cc1cc(C)nc(-n2nc(C)cc2NC(=O)c2cccc(S(=O)(=O)N(C)C)c2)n1
  0.27 | 0.61
> O=C1OCCC1Sc1nc2ccccc2c(=O)n1Cc1ccc(F)cc1 (stereo not drawn)
  6.28* | 1.62*
> c1ccc(-c2ncnc3cc4n(c23)CCC4)cc1
  0.18 | -0.3
> CN(CC1CCCO1)S(=O)(=O)c1ccc(C(=O)N2CCN(c3ccccc3)CC2)cc1 (stereo not drawn)
  0.03 | -2.52
> CC1CC(C)(C)CC2(C1)NC(=O)N(CC(=O)NCCc1c[nH]c3ccccc13)C2=O (stereo not drawn)
  0.22 | 1.58
> Cc1ccccc1CN1C(=O)/C(=C\c2ccc(C(=O)NCCN3CCOCC3)cc2)Sc2ccccc21
  0.99 | 0.69
> COc1ccc(N(CC(=O)Nc2cccc(C)c2)S(=O)(=O)c2ccc(C)cc2)cc1OC
  0.5 | 1
> O=S1(=O)CCOC[C@H](CC2CCCCC2)N1Cc1cccc(F)c1
  0.53 | 0.94
> Cc1ccc2oc(C(=O)NC3CCS(=O)(=O)C3)c(C)c2c1 (stereo not drawn)
  1.29 | 1.72
> CCOc1ccc(Br)cc1S(=O)(=O)Nc1ccc(NC(=O)c2ccccc2F)cc1
  0.2 | -1.5
> C=CCNC(=S)/N=c1/ccccn1CC
  0.01 | 3
> Cc1cc(C)c(S(=O)(=O)Nc2ccc(C(=O)O)cc2)cc1S(=O)(=O)Nc1ccc(C(=O)O)cc1
  0.49 | 0.84
> CCCOc1ccc(-c2c(C(=O)N/N=C/c3cccnc3)nnn2-c2nonc2N)cc1
  1.25 | -0.21
> COc1ccccc1-c1cc(C(=O)N2CCN(c3ccc(F)cc3)CC2)no1
  0.5 | 0.01
> O=C(c1ccco1)N1CCN(S(=O)(=O)c2ccc3[nH]c(=O)oc3c2)CC1
  0.05 | 0.43
> Cn1c(SCC(=O)Nc2ccccc2)nnc1-c1ccc2nonc2c1
  0.11 | -0.79
> Cc1ccc(CC(=O)NCCCn2ccnc2)cc1
  0.67 | 1.09
> CCCC(=O)OCC(=O)Nc1cc([N+](=O)[O-])ccc1OC
  0.57 | 0.16
> Cc1cc(C)c2nc(N3CCC(C(=O)N4CCN(C(=O)c5ccco5)CC4)CC3)sc2c1
  0.3 | -0.92
> CCOC(=O)N1CCC(NC(=O)c2cc(S(=O)(=O)N3CCc4ccccc43)cn2C)CC1
  0.38 | -0.62
> Cc1ccc(C(=O)Nc2ccc(Cc3ccncc3)cc2)cc1[N+](=O)[O-]
  4.66 | -0.05

No new results follow: 21 of the compounds above.
Screens in order: KCNQ2 enhance | KCNQ2 enhance baseline
> Cc1cc(C)nc(-n2nc(C)cc2NC(=O)c2cccc(S(=O)(=O)N(C)C)c2)n1
  0.27 | 0.61
> O=C1OCCC1Sc1nc2ccccc2c(=O)n1Cc1ccc(F)cc1 (stereo not drawn)
  6.28* | 1.62*
> c1ccc(-c2ncnc3cc4n(c23)CCC4)cc1
  0.18 | -0.3
> CN(CC1CCCO1)S(=O)(=O)c1ccc(C(=O)N2CCN(c3ccccc3)CC2)cc1 (stereo not drawn)
  0.03 | -2.52
> CC1CC(C)(C)CC2(C1)NC(=O)N(CC(=O)NCCc1c[nH]c3ccccc13)C2=O (stereo not drawn)
  0.22 | 1.58
> Cc1ccccc1CN1C(=O)/C(=C\c2ccc(C(=O)NCCN3CCOCC3)cc2)Sc2ccccc21
  0.99 | 0.69
> COc1ccc(N(CC(=O)Nc2cccc(C)c2)S(=O)(=O)c2ccc(C)cc2)cc1OC
  0.5 | 1
> O=S1(=O)CCOC[C@H](CC2CCCCC2)N1Cc1cccc(F)c1
  0.53 | 0.94
> Cc1ccc2oc(C(=O)NC3CCS(=O)(=O)C3)c(C)c2c1 (stereo not drawn)
  1.29 | 1.72
> CCOc1ccc(Br)cc1S(=O)(=O)Nc1ccc(NC(=O)c2ccccc2F)cc1
  0.2 | -1.5
> C=CCNC(=S)/N=c1/ccccn1CC
  0.01 | 3
> Cc1cc(C)c(S(=O)(=O)Nc2ccc(C(=O)O)cc2)cc1S(=O)(=O)Nc1ccc(C(=O)O)cc1
  0.49 | 0.84
> CCCOc1ccc(-c2c(C(=O)N/N=C/c3cccnc3)nnn2-c2nonc2N)cc1
  1.25 | -0.21
> COc1ccccc1-c1cc(C(=O)N2CCN(c3ccc(F)cc3)CC2)no1
  0.5 | 0.01
> O=C(c1ccco1)N1CCN(S(=O)(=O)c2ccc3[nH]c(=O)oc3c2)CC1
  0.05 | 0.43
> Cn1c(SCC(=O)Nc2ccccc2)nnc1-c1ccc2nonc2c1
  0.11 | -0.79
> Cc1ccc(CC(=O)NCCCn2ccnc2)cc1
  0.67 | 1.09
> CCCC(=O)OCC(=O)Nc1cc([N+](=O)[O-])ccc1OC
  0.57 | 0.16
> Cc1cc(C)c2nc(N3CCC(C(=O)N4CCN(C(=O)c5ccco5)CC4)CC3)sc2c1
  0.3 | -0.92
> CCOC(=O)N1CCC(NC(=O)c2cc(S(=O)(=O)N3CCc4ccccc43)cn2C)CC1
  0.38 | -0.62
> Cc1ccc(C(=O)Nc2ccc(Cc3ccncc3)cc2)cc1[N+](=O)[O-]
  4.66 | -0.05

Further structures.
Screens in order: KCNQ2 enhance | KCNQ2 enhance baseline
> Cc1ccc(C(=O)NCc2nnc3c(C(F)(F)F)cc(Cl)cn23)o1
  1.74 | 0.36
> Cn1c(SCC(=O)c2c(N)n(C)c(=O)n(C)c2=O)nnc1-c1ccccc1
  0.07 | 0.07
> COc1ccc(C(=O)c2cnc[nH]2)cc1OC
  2.04 | 0.19
> Cc1oc(-c2ccccc2F)nc1CSCC(=O)NC1CC1
  0.11 | 0.08
> CCc1nc(-c2ccccc2)cc(=O)[nH]1
  0.16 | -1
> COc1ccc(CCn2c(C)cc3c(c2=O)C(c2ccncc2)C(C#N)=C(N)O3)cc1OC (stereo not drawn)
  0.28 | 0.09
> CC(C)n1c(O)c(N=Nc2ccc(Cl)nn2)c2ccccc21
  1.31 | 0.01
> Cc1ccc(N2NC3(CCN(C(N)=O)CC3)NC2=O)cc1
  0.51 | 0.82
> Clc1ccc(Cn2nnc3ccccc32)cc1
  0.18 | 0.92
> CC(=O)c1sc(NC(=O)c2ccc(C)cc2)nc1C
  0.52 | 0.05
> Cc1ccc(Nc2nc(N)nc(CCl)n2)cc1
  0.82 | -0.31
> O=C(NC1CCCCC1)C1CCCN(S(=O)(=O)c2cccs2)C1 (stereo not drawn)
  0.42 | -1.47
> COc1cccc(NC(=O)COC(=O)CNS(=O)(=O)c2c(F)cccc2F)c1
  1.05 | -0.39
> CN1CCN(C(=O)Nc2ccccc2CC[N+](=O)[O-])CC1
  0.03 | -0.27
> CC(=O)c1ccc(N2CC(C)(C)C2=O)cc1
  1.33 | -1.39
> COC(=O)c1c(NC(=O)/C=C/C(=O)O)sc(C)c1-c1ccc(C(C)C)cc1
  1.21 | 0.09
> CCCN1CCc2c(sc(NC(=O)CCS(=O)(=O)c3ccccc3)c2C(N)=O)C1
  0.32 | -0.17
> O=C(COC(=O)C1CCN(c2ccc(C(F)(F)F)cn2)CC1)NC1CCCCC1
  0.46 | -1.54
> CC(C)n1nc(C(=O)OCC(=O)N2CC(=O)Nc3ccccc32)c2ccccc2c1=O
  1.08 | 0.01
> C/C(=N\NC(=O)COc1ccccc1[N+](=O)[O-])c1cccc(NC(=O)c2ccncc2)c1
  1.24 | 1.03
> C=C(C)C1CC=C(C)/C(=N/NC(=O)c2ccc(NC(=O)CC)cc2)C1 (stereo not drawn)
  0.91 | 0.52
> O=C(NN1C(=O)/C(=C/C=C/c2ccco2)SC1=S)c1ccncc1
  1.05 | -1.09
> COC(=O)CSc1nnc(NC(=O)/C=C\c2ccc3c(c2)OCO3)s1
  0.08 | -0.38
> O=C(NC12CC3CC(CC(C3)C1)C2)N1CCC(n2nnc3ccccc32)CC1
  1.11 | 0.18
> CC(C)(C)c1ccc(C2SCC(=O)N2c2cccc(C(=O)O)c2)cc1 (stereo not drawn)
  0.89 | -1.66
> CN(C)S(=O)(=O)c1cccc(C(=O)Nc2ccccc2[N+](=O)[O-])c1
  0.18 | 0.49
> CCc1ccc(CN2CCC(CO)(CC3CCCCO3)CC2)o1 (stereo not drawn)
  0.71 | -0.12
> COc1ccc(CN(Cc2ccccn2)S(=O)(=O)c2ccc(-n3cnnn3)cc2)cc1
  0.11 | 0.79

Source: PubChem (Johns Hopkins Ion Channel Center)

Some of the compounds tested (hit frequency here may not be typical).
